High-throughput results as filed in PubChem.
MLL AF4-AF9 inh – MLL-AF4/AF9 protein interaction inhibition | P42568 | AID 651704 | inhibition, % at 10 µM | hit rate 0.47% among 350,000 | AlphaScreen, biotin-AF4 peptide binding to FLAG-AF9;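 active = every replicate reaching a set inhibition limit, whatever the replicate mean, cut at about 25% in these data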;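 also: 0% = plate neutral control median and 100% = total signal loss; the record names both 10 and 1 µM as test concentration; the first replicate is given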
Target sequence (P42568 whole entry, looked up): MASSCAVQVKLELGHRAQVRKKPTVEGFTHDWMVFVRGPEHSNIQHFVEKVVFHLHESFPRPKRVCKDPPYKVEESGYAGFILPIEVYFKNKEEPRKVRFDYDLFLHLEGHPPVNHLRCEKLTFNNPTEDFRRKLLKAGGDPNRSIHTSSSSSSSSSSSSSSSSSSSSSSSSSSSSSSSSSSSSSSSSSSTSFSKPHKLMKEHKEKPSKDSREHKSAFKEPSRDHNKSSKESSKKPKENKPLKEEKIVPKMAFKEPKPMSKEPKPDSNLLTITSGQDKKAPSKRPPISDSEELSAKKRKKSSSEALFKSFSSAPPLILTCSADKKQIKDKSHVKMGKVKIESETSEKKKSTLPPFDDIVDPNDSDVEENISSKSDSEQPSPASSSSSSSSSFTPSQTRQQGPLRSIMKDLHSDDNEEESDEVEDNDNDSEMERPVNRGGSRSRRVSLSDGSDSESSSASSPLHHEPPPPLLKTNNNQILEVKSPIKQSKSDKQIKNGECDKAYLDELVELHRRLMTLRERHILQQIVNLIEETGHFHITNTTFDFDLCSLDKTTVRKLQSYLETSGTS
The depositor's hits bear a star. An excerpt; rates above refer to the full screens.

SMILES	MLL AF4-AF9 inh
CC1=C(C(=O)N2CCCCCC2)CC(CC(=O)NC2CCCCC2)C(=O)N1CCC1=CCCCC1 (configuration not stated)	1.0
O=c1ccoc2ccccc12	-2.2
O=C(C1CCCC1)N1CCCCN2[C@H](CO)[C@H](c3ccc(C#CC4CC4)cc3)[C@@H]2C1	1.3
CCCC(=O)N(CCc1c[nH]c2ccccc12)[C@@H]1CC(C(=O)NCCO)=C[C@H](Oc2c(I)cc(CO)cc2OC)[C@H]1O	1.5
O=C(NCc1cccnc1)OC1CC2CC1[C@H]1CCCCN1C2=O (some centres not stated)	-2.9
CCCNC(=O)NC[C@@H]1CC[C@H]2[C@H](CN2C(=O)C2CCOCC2)O1	-0.3
CC(=O)OCC(=O)C1(O)CCC2C3CCC4CC(O)CCC4(C)C3C(=O)CC21C (configuration not stated)	-4.7
O=C(NC1CCCCC1)C1c2ccccc2OCC(=O)N1Cc1cccnc1 (configuration not stated)	2.7
CCCc1ccc(C(O)c2ncc(-c3ccc(OC)cc3)[nH]2)cc1 (configuration not stated)	0.8
Cc1ccc(S(=O)(=O)N2C[C@@H]3O[C@H](CNS(=O)(=O)c4ccccc4C)CC[C@@H]32)cc1	1.1
CSc1cnn(CCC#N)c(=O)n1	-3.5
O=C(O)C1=C[C@@H](C2CCCC2)C[C@@H](OCCCCO)O1	-3.8
CN(N=Nc1nc[nH]c1C(N)=O)C1CCCCC1	-7.4
COCCOC(=O)N1C(=O)[C@@]2(c3cc(C#CCNC(N)=O)ccc31)[C@H](C(=O)N1CCN(c3ncccn3)CC1)[C@H]1C(=O)O[C@H](c3ccccc3)[C@H](c3ccccc3)N1[C@@H]2c1ccccc1OCCO	-0.5
COc1ccc(OC)c(C=Cc2ccc([N+](=O)[O-])cc2)c1	5.0

Reprinted from the listing for reference:
SMILES	MLL AF4-AF9 inh
CC1=C(C(=O)N2CCCCCC2)CC(CC(=O)NC2CCCCC2)C(=O)N1CCC1=CCCCC1 (configuration not stated)	1.0
O=c1ccoc2ccccc12	-2.2
O=C(C1CCCC1)N1CCCCN2[C@H](CO)[C@H](c3ccc(C#CC4CC4)cc3)[C@@H]2C1	1.3
CCCC(=O)N(CCc1c[nH]c2ccccc12)[C@@H]1CC(C(=O)NCCO)=C[C@H](Oc2c(I)cc(CO)cc2OC)[C@H]1O	1.5
O=C(NCc1cccnc1)OC1CC2CC1[C@H]1CCCCN1C2=O (some centres not stated)	-2.9
CCCNC(=O)NC[C@@H]1CC[C@H]2[C@H](CN2C(=O)C2CCOCC2)O1	-0.3
CC(=O)OCC(=O)C1(O)CCC2C3CCC4CC(O)CCC4(C)C3C(=O)CC21C (configuration not stated)	-4.7
O=C(NC1CCCCC1)C1c2ccccc2OCC(=O)N1Cc1cccnc1 (configuration not stated)	2.7
CCCc1ccc(C(O)c2ncc(-c3ccc(OC)cc3)[nH]2)cc1 (configuration not stated)	0.8
Cc1ccc(S(=O)(=O)N2C[C@@H]3O[C@H](CNS(=O)(=O)c4ccccc4C)CC[C@@H]32)cc1	1.1
CSc1cnn(CCC#N)c(=O)n1	-3.5
O=C(O)C1=C[C@@H](C2CCCC2)C[C@@H](OCCCCO)O1	-3.8
CN(N=Nc1nc[nH]c1C(N)=O)C1CCCCC1	-7.4
COCCOC(=O)N1C(=O)[C@@]2(c3cc(C#CCNC(N)=O)ccc31)[C@H](C(=O)N1CCN(c3ncccn3)CC1)[C@H]1C(=O)O[C@H](c3ccccc3)[C@H](c3ccccc3)N1[C@@H]2c1ccccc1OCCO	-0.5
COc1ccc(OC)c(C=Cc2ccc([N+](=O)[O-])cc2)c1	5.0

(cont.)
SMILES	MLL AF4-AF9 inh
CC1=C(C(=O)N2CCOCC2)CC(CC(=O)NC(c2ccccc2)c2ccccc2)C(=O)N1CCC1=CCCCC1 (configuration not stated)	-1.3
COc1cc2c(cc1OC)CN(C(=O)[C@H]1[C@@H]3C(=O)O[C@@H](c4ccccc4)[C@@H](c4ccccc4)N3[C@@H](c3ccccc3OCCO)[C@]13C(=O)Nc1ccccc13)CC2	5.7
CCc1nc2ccc(C(=O)NCCc3ccccn3)cn2c1N(C)CCC(C)C	2.3
CC(C)N(Cc1ccccc1)S(=O)(=O)c1n[nH]c(C(C)(C)C)n1	-7.2
CC(C)C[C@@H]1NC(=O)[C@@H]2C[C@H](C(=O)NCc3ccc(F)cc3)[C@H](c3ccc(O)cc3)N2C1=O	-9.0
O=S(CC(O)(c1ccccc1)c1ccccc1)CC(O)(c1ccccc1)c1ccccc1	-0.1
COc1cc(CC(=O)Nc2cc(S(=O)(=O)N3CCOCC3)ccc2N2CCCC2)cc(OC)c1OC	2.6
COc1ccc([Si](C)(C)[C@@H]2[C@@H](CCO)O[C@]3(C(=O)N(Cc4cccc(NC(C)=O)c4)c4ccccc43)[C@H]2C)cc1	2.2
O=C(C[C@H]1CC[C@H]2[C@@H](COC[C@H](O)CN2Cc2ccccc2F)O1)N[C@H]1CCN(Cc2ccccc2)C1	0.2
Cc1ccc(OCCN2CCC2(C)C(=O)Nc2ccc3c(c2)OCO3)cc1 (configuration not stated)	-0.5
O=c1ccn([C@@H]2O[C@H](CNCc3ccccc3)[C@@H](O)[C@H]2O)c(=O)[nH]1	0.1
CC[C@H](C)/C=C(C)/C=C/c1cc2c(cn1)C(=O)[C@@](C)(OC(C)=O)C(O)=C2Cl	6.4
C=CCNC(=O)[C@@H]1[C@H]2C(=O)O[C@H](c3ccccc3)[C@H](c3ccccc3)N2[C@H](c2ccc(O)cc2)[C@@]12C(=O)N(C(=O)OCCOC)c1ccc(C#Cc3ccc(OC)cc3)cc12	-0.6
O=C(C[C@H]1C=C[C@H](NC(=O)c2ccncc2)[C@H](CO)O1)NCc1ccncn1	-4.0
COC(=O)c1sc(C(F)(F)F)c(-c2ccccc2)c1S(=O)(=O)N1CCOCC1	1.3
O=C(c1cccnc1)N1CCCCN2[C@H](CO)[C@H](c3ccc(C#Cc4ccccc4)cc3)[C@@H]2C1	0.1
O=C(COC(=O)c1cccc(S(=O)(=O)N2CCCC2)c1)c1ccc(F)cc1	-2.6
CCCCCCCCN1C(=O)[C@H](CC(=O)NCCCOC)C[C@@]2(C(=O)OCC)CCCC=C12	-3.4
COc1cc2c(cc1OC)CN(C(=O)[C@@H]1[C@H]3C(=O)O[C@H](c4ccccc4)[C@H](c4ccccc4)N3[C@H](c3ccc(O)cc3)[C@@]13C(=O)Nc1ccccc13)CC2	-0.8
COc1cccc(-c2cc(NC=O)c3ncc(-c4ccc(C(C)=O)cc4)n3c2)c1	-2.9
O=C(N[C@H]1c2ccccc2C[C@H]1O)C1=C[C@H](c2coc3ccccc3c2=O)C[C@H](OCCCCO)O1	-4.3
O=C(NC[C@H]1CC[C@@H]2[C@@H](CN2Cc2ccccc2F)O1)C1CC1	-3.0
Cc1noc(C)c1C(=O)OC(C)C(=O)c1ccc(C(C)(C)C)cc1 (configuration not stated)	-5.5
CS(=O)(=O)N[C@@H]1C[C@@H]2O[C@H](CO)CC[C@@H]2O[C@@H]1CCc1ccc(/C=C/c2ccccc2)cc1	5.1
COc1ccc([Si](C)(C)[C@H]2[C@H](CCO)O[C@@]3(C(=O)N(Cc4ccccc4)c4ccc(NC(C)=O)cc43)[C@@H]2C)cc1	2.8
CC(C)C(=O)N1CCCC1(C)C(=O)NCc1ccccn1 (configuration not stated)	-5.2
Cc1cncc(NCc2cccc(Cl)c2)n1	-5.2
COc1ccc(NC(=O)O[C@@H](c2ccc(OCCO)cc2)[C@@H](C)CCO)cc1	-0.5
O=C(C[C@@H]1C=C[C@@H](NC(=O)NC2CCCCC2)[C@H](CO)O1)NCc1ccc(Cl)cc1	-0.4
Cn1c(=O)ccc2ccccc21	-0.8
CNC(=O)OCc1ncn(-c2ccccc2)c1COC(=O)NC	-2.8
COc1ccccc1-c1cc(C(F)(F)F)nc(S(=O)(=O)CCCC(=O)Nc2cccnc2Cl)n1	2.3
CC(C)NC(=O)N(C)C[C@@H]1OCCCC[C@H](C)Oc2ccc(N(C)C)cc2C(=O)N([C@@H](C)CO)C[C@H]1C	-1.7
Nc1ccn(C(C=O)CC(C=O)CO)c(=O)n1 (configuration not stated)	-2.1
COC(=O)[C@@]1(Cc2ccccc2CN=[N+]=[N-])N=C(c2ccc(OCCCO)cc2)O[C@H]1c1ccccc1	5.6
COc1ccccc1NC(=O)N1CCCCN2[C@H](CO)[C@H](c3ccc(-c4ccccc4)cc3)[C@@H]2C1	-3.4
Cc1ccc2cc(F)ccc2n1	-3.7
COCC(=O)N[C@@H]1C[C@@H]2O[C@@H](CO)CC[C@@H]2O[C@@H]1CCc1ccc(-c2ccccc2)cc1	0.5
C=CCN1C(=O)[C@]2(O[C@H](CCn3cc([C@H](O)c4ccccc4)nn3)[C@@H]([Si](C)(C)c3ccc(OC)cc3)[C@@H]2C)c2cc(N3CCOC3=O)ccc21	-9.2
OC[C@@H]1CN(Cc2ccco2)C[C@H](n2cnc3c(NCc4ccncc4)ncnc32)O1	-1.6
Cc1cccc(C)c1NC(=O)C1c2ccccc2OCC(=O)N1Cc1cccnc1 (configuration not stated)	-0.2
CC(C)Oc1ccc(CN2CCC2(C)C(=O)Nc2cnc3ccccc3c2)cc1 (configuration not stated)	1.6
COC(=O)c1cc2c(c3c4cc(C)ccc4n(S(=O)(=O)c4ccc(C)cc4)c13)C(=O)N(Cc1ccc(C(F)(F)F)cc1)C2	-8.2
Cc1cc(Br)cn2c(Cc3ccccc3)c(-c3ccc(C#N)cc3)nc12	-5.7
O=C(C1CCCC1)N1CCCCN2[C@H](CO)[C@@H](c3ccc(-c4ccncc4)cc3)[C@H]2C1	0.4
O=C(C1CC1)N1CCCCN2[C@H](CO)[C@@H](c3ccc(C#CC4(O)CCCC4)cc3)[C@@H]2C1	-5.8
CC1(C(=O)NS(=O)(=O)c2ccccc2C(F)(F)F)CCN1C(=O)CCC1CCCC1 (configuration not stated)	-0.9
CCCc1cc(=O)oc2cc(OCC(=O)N3CC[C@@]4(O)CCCC[C@H]4C3)ccc12	-1.7
CC(C)(C)C1CCN2CCCC(c3ccccc3)(C1)C2=O (configuration not stated)	1.5
C[C@H](CO)N1C[C@H](C)[C@H](CN(C)S(=O)(=O)c2cn(C)cn2)Oc2ncc(C#Cc3ccccc3)cc2C1=O	0.2
COc1cccc(C(NC(C)=O)c2nc(-c3ccccc3)cs2)c1 (configuration not stated)	-2.3
CC(C(=O)O)(C1CCCCC1)C1(O)CCCCC1 (configuration not stated)	-6.9
CC1(C(=O)NCC2CC2)CCN1C(=O)C1(c2ccccc2)CC1 (configuration not stated)	0.5
CC(=NNc1cc(C)c2ccccc2n1)c1ccccn1	29*
C[C@H](CO)N1C[C@H](C)[C@H](CN(C)S(=O)(=O)c2ccc(Cl)cc2)Oc2c(NC(=O)Nc3ccc(C(F)(F)F)cc3)cccc2C1=O	-1.3
CC(=O)Nc1ccc(-c2ccnc3c2CC(C)(C(=O)NCc2ccc(F)c(F)c2)O3)cc1 (configuration not stated)	1.3
COc1ccc(NC(=O)N2CCCCN3[C@@H](CO)[C@@H](c4ccc(C5=CCCC5)cc4)[C@@H]3C2)cc1	13
COC[C@@]12C[C@H]3C(=O)N(Cc4ccccc4)C(=O)[C@H]3[C@@H](CO1)/C2=C\c1ccccc1	-0.9
CC(C)NC(=O)c1cc(C2CCCCN2C(=O)c2cc(C(C)(C)C)nn2C)on1 (configuration not stated)	0.1
CC1=C(C(=O)N2CCCCCC2)CC(CC(=O)NCCN2CCOCC2)C(=O)N1CCC1=CCCCC1 (configuration not stated)	-7.2
The list goes on.
SMILES	MLL AF4-AF9 inh
Cn1cnc(S(=O)(=O)NC[C@@H]2CC[C@@H]3[C@@H](CN3Cc3nccs3)O2)c1	-5.8
COc1ccc(C#Cc2cccc(-c3nc(C(=O)N[C@@H]4CCN(Cc5ccccc5)C4)cc4c3[C@@H](CCO)N(S(=O)C(C)(C)C)C4)c2)cc1OC (some centres not stated)	1.8
COc1ccccc1CNc1nc(NC(C)C)nc2ccsc12	2.3
CN(C)CCCNC(=O)[C@@]1(c2ccc([N+](=O)[O-])cc2)CC(=O)N(C2CCCCC2)[C@@H]1c1ccc(CO)cc1I	4.9
Cc1ccc(NC(=O)c2cc(S(=O)(=O)N3CCCCC3)ccc2N2CCOCC2)cc1S(=O)(=O)N(C)C	0.7
COc1ccc([Si](C)(C)[C@@H]2[C@@H](CCO)O[C@]3(C(=O)N(Cc4ccccc4)c4ccc(N5CCOC5=O)cc43)[C@H]2C)cc1	2.7
CN(C)CCCNc1nc2cc(-c3cncnc3)sc2c(=O)n1C	-1.9
C[C@H]1C=C(C(=O)Nc2ccccc2)O[C@@H](OCc2ccc(CO)cc2)C1	-7.1
COC(=O)c1cn(CCNC(=O)[C@H](Cc2ccccc2)NS(=O)(=O)c2ccc(C)cc2)nn1	-6.2
CC(=O)N1CCN(C(=O)c2[nH]c(C(F)(F)F)nc2-c2ccccc2)CC1	-1.8
COc1cccc(Nc2nc(C(N)c3ccccc3Cl)cs2)n1 (configuration not stated)	13
C[C@H]1CN([C@@H](C)CO)S(=O)(=O)c2ccc(C#CCC3CCCC3)cc2O[C@@H]1CN(C)Cc1ccc(C(=O)O)cc1	-7.2
O=C(Nc1ccc2c(c1)OCO2)c1csc([C@@H]2O[C@H](CO)[C@H](O)[C@H](O)[C@H]2O)n1	-2.7
CC(C)c1cn([C@H]2C[C@@H]3O[C@@H](CO)CC[C@@H]3O[C@@H]2CCc2ccc(C#CC3CCCCC3)cc2)nn1	4.0
CCCNC(=O)N1C[C@H](C)[C@@H](OC)CN(C)C(=O)c2ccc(NC(C)=O)cc2OC[C@@H]1C	-2.9

3 structures already listed, sorted by count of non-hydrogen atoms, falling:
SMILES	MLL AF4-AF9 inh
O=C(Nc1ccc2c(c1)OCO2)c1csc([C@@H]2O[C@H](CO)[C@H](O)[C@H](O)[C@H]2O)n1	-2.7
Cn1cnc(S(=O)(=O)NC[C@@H]2CC[C@@H]3[C@@H](CN3Cc3nccs3)O2)c1	-5.8
COc1ccc(OC)c(C=Cc2ccc([N+](=O)[O-])cc2)c1	5.0
